D2 agonist: Beta-Arrestin HTS for Positive Allosteric Modulators of the Human D2 Dopamine Receptor: Agonists; DiscoveRx PathHunter D2 beta-arrestin, luminescence, 90 min; 100% = 57 uM dopamine signal; activation, % (no concentration beside the values); 360,000 compounds, 0.084% hits; AID 624465, 2012; in the data active = activation above about 40%; inconclusive = about 15% to 40%; inactive = below about 15%; further: compound concentration not given in the record; the text of the record calls up to 30% inactive
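DiscoveRx PathHunter D2 beta-arrestin cells (2,100/well) attached overnight, then compound-stimulated 90 min at 37 C in HBSS/10 mM HEPES/0.1% Tween-20 buffer; beta-galactosidase complementation read by luminescence after 1 h at ambient temperature. Dopamine 57 uM final (EC100) as control.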
CtBP-E1A inh: qHTS Assay for Inhibitors of the CtBP/E1A Interaction. CtBP / adenovirus E1A interaction (AlphaScreen). AlphaScreen GST-E1A/His-CtBP binding, 1536-well; hits give low values; control for the full effect not named in the record. activity change, % (no concentration beside the values). 340,000 compounds, 0.49% hits; in the data active means activity change below about -65%; inconclusive means about -30% to -65%; inactive means above about -30%; further: on the % scale 0 is the no-effect control and ±100 the full control effect
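AlphaScreen with 125 nM GST-E1A and 125 nM His-CtBP (5X stocks) in Tris pH 8.0, 300 mM NaCl, BSA, Tween 20, TCEP. Compounds preincubated 2 h at 37 deg C, then glutathione donor/nickel acceptor beads added for 1 h at 37 deg C in dark.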
gsp agonist: qHTS for Agonist of gsp, the Etiologic Mutation Responsible for Fibrous Dysplasia/McCune-Albright Syndrome: qHTS | Potency, µM (doses to about 76.9 µM), for the others: at the top dose activation (cAMP increase), hits mostly activators | gsp mutant cells, cAMP HTRF, 30 min; control for the full effect not named in the record | 340,000 compounds, 0.13% hits; active = well fitted activation curve with a large enough effect; inconclusive = small, poorly fitted or top-dose-only effect, or another doubt; inactive = no such curve, though single readings can be large or run the other way; cell line not stated here;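 further: phosphodiesterase inhibitor Ro 20-1724 added with compounds to block cAMP breakdown; potency means the concentration at half of the fitted maximal effect; nearly all actives have a fitted effect of over 60% in size; about a fifth of the inactives were tested at one dose only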
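Cells stably selected in G418 were plated at 2000/well, grown 16-24 hr, then given compounds in DMSO with the PDE inhibitor […] (300 uM solution added) for 30 min at 37C; cAMP was read by HTRF.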
D2 potentiator: Beta-Arrestin HTS for Positive Allosteric Modulators of the Human D2 Dopamine Receptor: Potentiators. D(2) dopamine receptor (Homo sapiens), P14416. AID 624464, 2012. 360,000 compounds, 0.23% hits. potentiation, % (test concentration not listed). DiscoveRx D2 beta-arrestin cells, luminescence, 90 min; 100% = 57 uM dopamine signal; active = potentiation of 50% or more; inconclusive = 30% to 50%; inactive = 30% or less;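 further: compound concentration not given in the record; tested on top of an EC20 dose of dopamine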
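D2 cells co-treated with compound plus 50 nM dopamine (EC20) for 90 min at 37 deg C to detect potentiation. Beta-arrestin recruitment was read as enzyme-fragment luminescence after 1 h at ambient temperature. Full response was set by 57 uM dopamine.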
Six1-Eya2 inh: qHTS Assay for Inhibitors of the Six1/Eya2 Interaction. Homeobox protein SIX1 (Homo sapiens) + Protein phosphatase EYA2 (Homo sapiens), …. AlphaScreen GST-Six1/His-Eya2 binding, biochemical; hits give low values; control for the full effect not named in the record. activity change, % (no concentration beside the values). 360,000 compounds, 0.56% hits. AID 651725, 2012; in the data active = activity change below about -65%; inconclusive = about -30% to -65%; inactive = above about -30%; further: on the % scale 0 is the no-effect control and ±100 the full control effect
Target sequence (O00167 whole entry, looked up): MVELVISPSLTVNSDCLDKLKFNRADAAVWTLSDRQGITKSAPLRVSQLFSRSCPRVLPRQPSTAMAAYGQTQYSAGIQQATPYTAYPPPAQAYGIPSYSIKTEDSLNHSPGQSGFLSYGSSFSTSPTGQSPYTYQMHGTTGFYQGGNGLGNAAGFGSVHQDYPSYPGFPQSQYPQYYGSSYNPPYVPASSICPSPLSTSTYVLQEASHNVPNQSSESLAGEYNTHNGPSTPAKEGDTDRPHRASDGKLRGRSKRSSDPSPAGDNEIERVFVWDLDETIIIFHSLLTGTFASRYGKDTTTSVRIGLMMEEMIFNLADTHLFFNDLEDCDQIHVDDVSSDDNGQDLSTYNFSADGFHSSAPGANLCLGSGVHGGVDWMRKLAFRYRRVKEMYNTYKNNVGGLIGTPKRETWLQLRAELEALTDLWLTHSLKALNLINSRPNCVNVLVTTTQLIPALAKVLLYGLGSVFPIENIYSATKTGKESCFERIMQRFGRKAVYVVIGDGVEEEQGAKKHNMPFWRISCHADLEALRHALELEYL
Target sequence (Q15475 whole entry, looked up): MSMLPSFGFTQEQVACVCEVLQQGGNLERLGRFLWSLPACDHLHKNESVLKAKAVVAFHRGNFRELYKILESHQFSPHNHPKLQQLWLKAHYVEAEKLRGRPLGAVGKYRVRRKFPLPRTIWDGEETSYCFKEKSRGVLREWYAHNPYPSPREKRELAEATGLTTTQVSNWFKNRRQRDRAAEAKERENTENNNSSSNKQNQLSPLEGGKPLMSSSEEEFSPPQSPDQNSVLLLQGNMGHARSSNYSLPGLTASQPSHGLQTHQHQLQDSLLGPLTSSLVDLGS
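AlphaScreen luminescence read after one hour at 37 °C in darkness. Pin-transferred compounds met GST-Six1 and His-Eya2 protein (5X stock 250 nM/500 nM) plus glutathione donor and Ni-chelate acceptor beads (5X, 50 ug/mL).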
gsp antag: qHTS for Antagonists of gsp, the Etiologic Mutation Responsible for Fibrous Dysplasia/McCune-Albright Syndrome: qHTS; gsp-mutant cells, cAMP HTRF, 30 min; control for the full effect not named in the record; 340,000 compounds, 0.4% hits; Potency, µM (series often up to 76.9 µM), for inactives: top-dose activity change, negative = inhibition, most hits filed as inhibitors; AID 624288, 2012; active = falling curve of any shape with a large fitted effect; inconclusive = falling curve, mostly with a smaller effect; inactive = flat or rising curve; cell line not stated here;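 further: intracellular cAMP measured with PDE inhibitor Ro 20-1724 present during compound exposure; potency means the concentration at half of the fitted maximal effect; on the % scale 0 is the no-effect control and ±100 the full control effect; nearly all actives have a fitted effect of over 65% in size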
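Cells, 2000/well, grown 16–24 h in DMEM 10% FBS with 0.5 mg/ml G418, then compounds plus […] (300 uM addition stock), 30 min at 37C. cAMP read by HTRF (cAMP-d2 and anti-cAMP antibody-K in lysis buffer) after 30 min RT.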
The depositor's hits bear a star; u = inconclusive; x = not tested or not shown; [ ] = another dose, or the depositor's remark.

entry | Structure | D2 agonist | CtBP-E1A inh | gsp agonist | D2 potentiator | Six1-Eya2 inh | gsp antag
1 | Cc1cccc(C)c1N(CC(=O)NCc1ccccc1)C(=O)c1csnn1 | -4.5 | -21 | -6% | -3 | -4 | -3%
2 | CN(CCc1ccccn1)C(=O)CN(C)S(=O)(=O)c1ccc2c(c1)c(=O)n(C)c(=O)n2C | -0.8 | -8 | 1% | -7 | -1 | 11%
3 | COc1cc(C(=O)NCC(=O)NC(C)c2ccc(-n3ccnc3)cc2)cc(OC)c1OC (configuration not stated) | 3.5 | -4 | 2% | 16 | -12 | 18%
4 | CCOC(=O)c1cnc(NCc2ccccc2)nc1C | -1.0 | -4 | 4% | -4 | 10 | -1%
5 | CNCc1nc2ccccc2[nH]1 | 0.2 | -2 | -15% | -4 | 2 | 4%
6 | Cc1ccc(N(C)C(=O)c2cc(S(=O)(=O)N3CCc4ccccc43)cn2C)cc1 | -4.8 | -20 | -65%[inhibitor] | 1 | -4 | -8%
7 | CC(=O)N1CCN(c2ccc(NC(=O)c3ccccc3Br)cc2Cl)CC1 | -2.9 | -2 | 1% | -5 | -7 | -6%
8 | COc1ccc2nc(SC(C)C(=O)NC3CCCCC3)[nH]c2c1 (configuration not stated) | -2.0 | 6 | 11%[15.4 µM] | -3 | -5 | 0%
9 | O=C1c2ccc(-c3ccc(F)cc3OCc3ccccc3)cc2S(=O)(=O)c2cccc(C(=O)N3CCN(c4ncc(Cl)cc4Cl)CC3)c21 | -4.7 | -18 | -2% | -8 | -4 | 7%
10 | CN1CCc2c(sc(/N=C/c3cc(C(C)(C)C)ccc3O)c2C#N)C1 | 43* | -5 | 23%[15.4 µM] | 27 | -10 | 6%
11 | COc1cc2c(cc1NC(=S)NC(=O)/C=C/c1ccco1)oc1ccccc12 | 2.5 | 4 | -6% | 1 | -1 | 0%
12 | CCC(c1nnc(SCC(=O)Nc2ccc(N3CCOCC3)cc2)n1Cc1ccccc1)N(C)C (configuration not stated) | -3.2 | -2 | 5% | -9 | -1 | -5%
13 | COc1ccc(Cc2nc3ccc(C(=O)NCCc4ncccc4C)cc3o2)cc1OC | 1.6 | -6 | -5% | -7 | -6 | x
14 | CN(Cc1cn(C)nc1-c1ccc(Oc2ccccc2)cc1)C1CCOC1 (configuration not stated) | 0.5 | 4 | 2% | -8 | -1 | -6%
15 | Cc1cc(NC(=O)CSc2nnc3ccc(-c4ccccc4)nn23)no1 | -0.6 | -2 | -66%[inhibitor] | -3 | -3 | x
16 | CCOc1cc(C(=O)OCc2cc(=O)n3c(C)csc3n2)ccc1OC | 4.5 | 1 | 8% | 1 | 1 | -2%
17 | Cc1cc(NC(=O)NC(=O)c2cccc(OC(F)(F)C(F)F)c2)n[nH]1 | -4.9 | -1 | 0% | -7 | -2 | 8%
18 | Cc1cc(C)c([N+](=O)[O-])cc1NC(=O)CCS(=O)(=O)c1ccccc1 | -3.3 | x | -3% | -21 | -1 | 3%
19 | CC(Sc1nc(N)c2c3c(sc2n1)CSC(C)(C)C3)C(=O)Nc1ccccc1 (configuration not stated) | 1.3 | -17 | 6% | -1 | -15 | -13%
20 | Cc1ccc(SCC(=O)NC(=O)NCc2ccccc2)c(C)c1 | -0.8 | 3 | 25% | -14 | -2 | 9%
21 | CCn1cc(C(=O)NCCC(C)C)c(=O)c2cc(F)c(N3CCN(C)CC3)cc21 | -1.9 | x | u | -6 | 8 | 3%
22 | O=C(C1CCCO1)N1CCN(S(=O)(=O)c2ccc(F)cc2)CC1 (configuration not stated) | 2.6 | -17 | -16% | -11 | 6 | 11%
23 | Cc1cccc(NC(=S)NNC(=O)c2ccccc2Br)c1 | -16 | -22 | -6% | -32 | 5 | -4%
24 | Nc1nc(NC(=O)C(Cl)(Cl)Cl)nn1-c1ccccc1 | 0.1 | -2 | -54%[inhibitor] | -8 | -23 | 15%
25 | Cc1ccc(CNC(=O)c2ccc3c(c2)S(=O)(=O)c2ccccc2C3=O)o1 | 1.8 | -16 | u | 5 | -26 | 4%
26 | COc1ccc(C(=O)CCc2ccc(OC)c(OC)c2)cc1 | 1.1 | 8 | 24% | 0 | 2 | -14%
27 | Cc1cc(/C=C(\C#N)c2nc3ccccc3[nH]2)c(C)n1C | 4.8 | -7 | -10% | -37 | -10 | -13%
28 | COc1ccc(NC(=O)C2CCN(C(=O)Cc3ccccc3)CC2)c(OC)c1 | -3.3 | 4 | -9%[15.4 µM] | -6 | -1 | 2%
29 | COc1ccc2oc(=O)c(C(=O)Oc3ccc(NC(C)=O)cc3)cc2c1 | 2.0 | -5 | -25% | -3 | u | 6%
30 | COC(=O)C1=COC(OC2OC(CO)C(O)C(O)C2O)C2C1C=CC2(O)CO (configuration not stated) | -2.6 | 1 | x | -6 | -21 | 8%

Two entries from above, set out differently.
item	D2 agonist	CtBP-E1A inh	gsp agonist	D2 potentiator	Six1-Eya2 inh	gsp antag	SMILES
2	-0.8	-8	1%	-7	-1	11%	CN(CCc1ccccn1)C(=O)CN(C)S(=O)(=O)c1ccc2c(c1)c(=O)n(C)c(=O)n2C
3	3.5	-4	2%	16	-12	18%	COc1cc(C(=O)NCC(=O)NC(C)c2ccc(-n3ccnc3)cc2)cc(OC)c1OC (configuration not stated)

Other entries
entry | Structure | D2 agonist | CtBP-E1A inh | gsp agonist | D2 potentiator | Six1-Eya2 inh | gsp antag
31 | Cc1oc(-c2ccccc2F)nc1CSCC(=O)NC1CC1 | 0.7 | 3 | 21% | -3 | 1 | 9%
32 | Cc1ccc(/C=C(\C#N)C(=O)NCC2CCCO2)o1 (configuration not stated) | -4.8 | 2 | 3% | -5 | 6 | 7%
33 | Oc1ccccc1N1CCN(CC(O)COC2CCCc3ccccc32)CC1 (configuration not stated) | -1.3 | x | -13% | -8 | 0 | -5%
34 | COC(=O)C[C@@H]1C[C@H]2c3cc(N(C)C)ccc3O[C@H]2[C@H](CO)O1 | -6.9 | 0 | 17% | 5 | 5 | x
35 | Cc1nnc(SCSc2nnc(C)s2)s1 | -3.8 | 1 | u | -7 | -4 | 6%
36 | COc1cc(C)c(CN2CCSCC2)cc1C | -1.6 | x | u | -30 | -1 | 0%
37 | COc1c2ccoc2c(OC[C@@H](O)C(C)(C)O)c2oc(=O)ccc12 | -3.7 | 0 | 0% | 0 | -9 | -6%
38 | O=C(O)CCCCCNC(=O)CCn1cnc2ccccc2c1=O | -0.5 | 7 | 17% | 11 | 3 | -1%
39 | Cc1ccc(-c2cc(C(=O)Nc3cccnc3)[nH]n2)c(O)c1C | 3.2 | -6 | -6%[15.4 µM] | -6 | 1 | -2%
40 | COCCCNC(=O)CN(c1cc(Cl)cc(Cl)c1)S(C)(=O)=O | 1.3 | 5 | u | 1 | 6 | 3%
41 | COC(=O)c1cn(Cc2ccccc2C)nn1 | -2.7 | -8 | -1%[15.4 µM] | -2 | -7 | 8%
42 | Cc1cc(C(=O)Nc2nc3c(s2)CCCC3)no1 | -2.6 | 2 | 11% | -3 | -4 | -8%
43 | Cn1cnnc1SCC(=O)Nc1sccc1C#N | -1.1 | -5 | -1% | 1 | -5 | u
44 | Cc1cc(/C=N/O)c(C)n1-c1cccc(Cl)c1 | 0.0 | 7 | -36%[inhibitor] | -10 | 3 | -14%
45 | C=CC[n+]1c(-c2ccccc2)csc1NC(C)(C)C | -3.5 | u | 20% | -8 | -27 | 7%
46 | O=C(O)c1cccc(Cn2c(Cl)c(/C=N/NC(=O)c3cccc(O)c3)sc2=O)c1 | -2.7 | u | 0%[15.4 µM] | 5 | u | 0%
47 | O=C(Nc1cccc(F)c1)NC1CC2CCCC(C1)N2C1CC1 (configuration not stated) | -1.4 | 8 | -8% | -18 | 11 | 21%
48 | Cc1cc(C(=O)CSc2n[nH]c(N)n2)c(C)n1-c1cc(F)ccc1F | -1.8 | -6 | -3% | 5 | -2 | -14%
49 | CCNC(=S)NC1CC2CCCC(C1)N2Cc1ccc(C)cc1 (configuration not stated) | -3.1 | x | -41%[inhibitor] | -76 | -4 | 3%
50 | Cn1c(SCc2n[nH]c(=S)n2-c2ccccc2)nnc1-c1ccccc1 | -0.9 | -1 | 8% | -9 | 0 | -1%
51 | O=C(COc1ccc2ccccc2c1)NC1CC1 | -1.4 | 1 | -23% | 0 | -8 | -11%
52 | COc1cc(-c2cc3nc(NCCc4ccc(S(N)(=O)=O)cc4)ccn3n2)cc(OC)c1OC | u | -19 | x | 19 | -12 | x
53 | Cn1c(=O)[nH]c(=O)c2c1nc(Br)n2Cc1cccc(Br)c1 | 9.4 | 2 | -17% | 5 | 2 | -2%
54 | CCOC(=O)C1CC(C)=C(C)CC1C(=O)O (configuration not stated) | -2.6 | x | -7% | 3 | 8 | 12%
55 | CCOc1ccc(N2CC(O)=C(c3ccccc3)C2=N)cc1 | -6.1 | -16 | -7%[15.4 µM] | -3 | -3 | -40%
56 | O=C(NC(=S)N1CCCC1)c1ccccc1 | -5.9 | 17 | -1%[15.4 µM] | -8 | -1 | 0%
57 | CCCNC(=S)N1CCN(c2nc(C)nc3sc4c(c23)CCCC4)CC1 | 5.4 | -20 | -5% | 2 | -4 | u
58 | COc1ccc(N2C(=NC(C)=O)SC3CS(=O)(=O)CC32)cc1OC (configuration not stated) | -0.8 | 7 | 8% | -2 | 9 | -2%[15.4 µM]
59 | NC(=O)N(CCC(=O)O)c1ccccc1 | -3.4 | 4 | -17% | -19 | 0 | -2%
60 | S=C(NCc1ccccn1)Nc1ccccc1 | 0.8 | 8 | 0% | -3 | 10 | 7%
61 | Cc1cc(C(F)(F)F)nn1CC(=O)NNC(=S)Nc1ccc(Cl)cc1 | -2.0 | -4 | -24% | -6 | 1 | u
62 | Cc1cccc(CN2CCN(CC(=O)N3CCCC3)C2=O)c1 | 0.0 | 0 | 0% | -3 | 7 | 2%
63 | Cc1ccc(S(=O)(=O)NCC2CCC(C(=O)NCc3ccc4c(c3)OCO4)CC2)cc1 (configuration not stated) | 0.7 | 6 | -8% | -3 | 1 | -15%
64 | COc1ccc(-c2nnc(SC(C)C(=O)NCc3ccc4c(c3)OCO4)n2Cc2ccco2)cc1 (configuration not stated) | -3.9 | -3 | -39% | 1 | -13 | -6%
65 | COc1cc(C)ccc1OCCOCCOc1ccccc1[N+](=O)[O-] | -4.3 | 10 | 14% | 2 | 1 | 0%
66 | Cc1cn(Cc2ccccc2Cn2cc(C)c(=O)[nH]c2=O)c(=O)[nH]c1=O | 0.9 | 6 | -1%[15.4 µM] | 1 | 0 | 2%

Bioassay records: PubChem, National Center for Advancing Translational Sciences (NCATS)
